PMP22 txn prim = Cell-based coincidence reporter assay to measure PMP22 gene transcription in S16 Pmp22-F2sN cells - Primary screen; S16 Pmp22-F2sN Schwann cells (luciferase reporters placed in the Pmp22 gene), FLuc/NLuc coincidence luminescence, 24 h; Potency, µM (titrated, usually from 57.5 µM), for the others: at the highest dose activity change, negative = inhibition, usual class: inhibitors; 2% of 43,000 active; AID 1508649, 2021; active = clear falling dose curves in both reporters; inconclusive = both reporters move, but less clearly or upward; inactive = either reporter flat; the % is the NLuc reporter signal; note: % is set by controls: 0 for no effect and ±100 for the full control effect; some results filed as inactive show a strong effect at the top dose
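Transcriptional readout in edited S16(c9) cells: two luciferases reported from the Pmp22 locus, measured in turn after 24 h compound incubation.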
HTT prom inh = Primary qHTS for Identification of Small Molecule Inhibitors of Huntingtin Promoter Activity | HEK293 HTT promoter firefly luciferase reporter (activity 0% = vehicle and -100% = no light), 24 h | Potency, µM (series often up to 57.5 µM), for inactives: at the highest dose activity change, negative = inhibition, hits mostly inhibitors | AID 1508623, 2021 | 0.93% of 48,000 active; active = well fitted inhibition curve with a large enough effect; inconclusive = small, poorly fitted or top-dose-only effect; inactive = no such curve, though single readings can be large or run the other way; note: nearly all actives have a fitted effect of over 50% in size
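Firefly luciferase readout (Dual-Glo, 10 min RT) after 24 h, 37 °C compound exposure (final up to 57.5 uM) of HEK293 reporter cells cultured 24 h beforehand; PTC124 at 50 uM final as control inhibitor; activity scaled vehicle 0%, zero RLU -100%.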
Starred values were filed as active, the others as inactive; ? = inconclusive; . = not tested or not shown; [ ] = remark or other dose. Potency is the fitted concentration of half-maximal effect.

SMILES	PMP22 txn prim	HTT prom inh
COc1ccc(C(=O)c2cn(Cc3cccc(C)c3)c3cc4c(cc3c2=O)OCO4)cc1	?	-27%
Cc1ccc(CNC(=O)Cc2c(C)c3cc4c(C)coc4cc3oc2=O)cc1	1%	-3%
CC(=O)c1ccc(NC(=O)C2CCC(CNS(=O)(=O)c3cccs3)CC2)cc1 (stereo not drawn)	-4%	7%
Cc1ccccc1NC(=O)N1CCc2c(sc3c2CCCC3)C1c1ccccc1 (stereo not drawn)	?	?
COc1ccc(OCC(=O)Nc2nnc(S(=O)(=O)N3CCCCCC3)s2)cc1	5%	-1%
Cc1ccc(S(=O)(=O)NCCc2csc(-c3ccc(Cl)cc3)n2)cc1	?	?
COc1ccc(Nc2ncnc3c2cnn3C)c(OC)c1	-37%	-3%
CCOC(=O)N1CCc2c(sc(NCc3cccs3)c2C(=O)Nc2cc(OC)ccc2OC)C1	-3%	-9%
COc1ccccc1OC(C)C(=O)N1CCC(c2nc3ccccc3s2)CC1 (stereo not drawn)	2%	?
Cc1ccc(-c2ncc(Cl)cc2-c2ccc(S(C)(=O)=O)cc2)cn1	.	-11%
Cc1nn(-c2ccccc2)c2nc(C3CC3)cc(C(=O)Nc3ccccc3F)c12	-2%	?
CCOc1ccc(NC(=O)c2ccc3c(c2)CCN3S(=O)(=O)c2ccc(Cl)cc2)cc1	47%	?
O=C(CCSCc1ccccc1Cl)NCCc1ccccc1	-1%	11%
Cc1ccc(C(=O)N2c3ccc(C)cc3C(C)(c3ccccc3)CC2(C)C)cc1 (stereo not drawn)	3%	?
COc1ccc(OC)c(CCNC(=O)CCCc2nnc3n(C)c(=O)c4sccc4n23)c1	-16%	-4%
COc1ccc(N2CC(NC(=O)Cc3cccs3)CC2=O)cc1OC (stereo not drawn)	3%	-6%
COc1ccc(Cl)cc1NC(=O)Cn1nnc2sc3c(c2c1=O)CCC(C(C)(C)C)C3 (stereo not drawn)	1%	-6%
CC(=O)c1cccc(NC(=O)CN2C(=O)c3cccnc3Sc3ccccc32)c1	-25%	4%
Cc1nc(-c2ccc(S(=O)(=O)N3CCN(c4cccc(C(F)(F)F)c4)CC3)cc2)co1	-1%	?
COc1ccc(-c2cc(C(=O)NCCc3ccccc3)c3c(-c4ccc(Cl)cc4)[nH]nc3n2)cc1	?	-10%
Cc1ccc(-c2nnc(Nc3ccc(OCC(N)=O)cc3)c3ccccc23)cc1S(=O)(=O)NCC1CCCO1 (stereo not drawn)	-23%	-8%
CCCCOc1cccc(C(=O)N(Cc2ccc(N(C)C)cc2)C2CCS(=O)(=O)C2)c1 (stereo not drawn)	1%	-31%
CCOC(=O)c1cnn(-c2ccc(C(=O)Nc3cc(OC)c(OC)c(OC)c3)cc2)c1N	-23%	-19%
Cc1nn(C(=O)c2ccc(Cl)cc2)c(C)c1Sc1ccc(Cl)cc1	?	-1%
CCc1ccccc1NC(=O)CCOc1ccccc1	9%	-13%
(continued)
SMILES	PMP22 txn prim	HTT prom inh
Cc1ccc(NC(=O)Cn2c(=O)oc3cc(S(=O)(=O)N4CCCCCC4)ccc32)cc1Cl	?	?
Cc1cc(F)ccc1NC(=O)C1CCCN(S(=O)(=O)c2ccc3c(c2)CCCC(=O)N3)C1 (stereo not drawn)	-22%	-32%
CC(=O)N1CCCc2ccc(NC(=O)c3ccc(OC(C)C)cc3)cc21	-7%	?
N#CCNC(=O)c1ccc(-c2ccnc(Nc3ccc(N4CCOCC4)cc3)n2)cc1	.	3%
Cc1ccc2nc(CN3CCN(C(=O)Nc4ccc(C)c(F)c4)CC3)oc2c1	-23%	-19%
Cc1ccccc1-c1noc(-c2cc(C(C)C)[nH]n2)n1	-4%	51%[activator]
COc1ccc(Cn2c(C(=O)O)c(CNCCc3ccco3)c3ccc(OC)cc32)cc1	21%	-25%
O=C(O)CP(=O)(O)O	.	1%
CCC1CN(C(=O)Nc2cccc(OC)c2)c2ccccc2O1 (stereo not drawn)	9%	-28%
Cc1ccc(-n2nc3c(=O)n(CC(=O)Nc4ccccc4F)nc(C)c3c2C)c(C)c1	?	?
COCCNC(=O)C1CCC(CNS(=O)(=O)c2ccc3c(c2)CC(C)N3C(C)=O)CC1 (stereo not drawn)	8%	-12%
COc1cccc(CNC(=O)CCc2c(C)c3cc4c(C)c(C)oc4cc3oc2=O)c1	-8%	5%
Cc1ccccc1CN1C(=O)C(O)(CC(=O)c2ccccc2)c2cc(Cl)ccc21 (stereo not drawn)	?	?
COc1ccccc1Cn1c(CNS(=O)(=O)c2ccc(CC(C)C)cc2)nc2cccnc21	-9%	-24%
O=c1[nH]c(=O)c2ccccc2o1	.	-1%
COc1ccccc1C(=O)N1CCN(Cc2cc(=O)oc3cc(C)ccc23)CC1	?	-16%
Cc1cccc(OCc2nc(CC(=O)Nc3ccc(C)c(C)c3)cs2)c1	-20%	-14%
CCCCC1=NC2(CCCC2)C(=O)N1Cc1ccc(-c2ccccc2-c2nn[nH]n2)cc1	.	3%
CC(=O)Nc1ccc(NC(=O)CSc2nc3ccccc3nc2N2CCOCC2)cc1	-8%	-12%
COc1ccc(CN(C(=O)c2cc(=O)c3ccccc3o2)C2CCS(=O)(=O)C2)cc1OC (stereo not drawn)	12%	-18%
Cc1cccc(C)c1NC(=O)N1CCC(C(N)=O)(N2CCCCC2)CC1	-3%	0%
CC(C)NC(=O)C1CCCN(S(=O)(=O)c2ccc3c(ccn3C)c2)C1 (stereo not drawn)	-8%	1%
CCOc1ccc(NC(=O)c2cc(C)nc3c2c(C)nn3-c2cccc(F)c2)cc1	4%	-10%
CCOc1ccc(NC(=O)c2c(C)oc3nc(C)nc(N4CCOCC4)c23)cc1	-33%	5%
Cc1ccc(Nc2sc(C(=O)c3ccccc3)c(N)c2S(=O)(=O)c2ccccc2)c(C)c1	-11%	?

Fetched by compound from above (4):
SMILES	PMP22 txn prim	HTT prom inh
COCCNC(=O)C1CCC(CNS(=O)(=O)c2ccc3c(c2)CC(C)N3C(C)=O)CC1 (stereo not drawn)	8%	-12%
COc1ccc(Cn2c(C(=O)O)c(CNCCc3ccco3)c3ccc(OC)cc32)cc1	21%	-25%
CCOc1ccc(NC(=O)c2cc(C)nc3c2c(C)nn3-c2cccc(F)c2)cc1	4%	-10%
Cc1ccccc1-c1noc(-c2cc(C(C)C)[nH]n2)n1	-4%	51%[activator]

Following part.
SMILES	PMP22 txn prim	HTT prom inh
CC(C)C[C@@H](N)C(=O)O	.	-4%[25.2 µM]
Cc1ccc(-c2cc(C(=O)Oc3ccccc3)c3cc(C)ccc3n2)cc1	-7%	14%
CCOC(=O)C1CCCN(S(=O)(=O)c2ccc3[nH]c(=O)oc3c2)C1 (stereo not drawn)	-34%	?
CCc1nnc2c(NCCc3ccc(OC)c(OC)c3)nc3ccccc3n12	-53%	-5%
CCOC(=O)C1=C(C)NC2=C(C(=O)CC(C)(C)C2)C1c1ccc(-c2ccccc2)cc1 (stereo not drawn)	.	?
CCN(CC)CCCNC(=O)c1ccc2c(Cl)c3c(nc2c1)CCCC3	?	-8%
CCOc1ccc(CCNC(=O)c2ccc(CS(=O)(=O)c3ccccc3C)o2)cc1OCC	-13%	?
COCCCn1c(=N)c(C(=O)NCC2CCCO2)cc2c(=O)n3cc(C)ccc3nc21 (stereo not drawn)	-21%	1%
CCNC(=O)c1cc2c(-c3cc(OCCN4CCCC4)c(Cl)cc3Cl)nc(N)nc2s1	.	?
Cc1cc(Cl)ccc1NS(=O)(=O)c1ccc2c(c1)CCN2S(C)(=O)=O	-29%	-23%
COc1cccc2c1cc1c(=O)n(CC(=O)N3CCC(C)CC3)nc(C)n12	-7%	-4%
CCN(CC)C(=O)c1sc2c(c1C)c(=O)n(-c1ccc(OC)cc1OC)c(=O)n2CC(=O)c1ccc(Cl)cc1	-21%	-18%
CCc1nn(CC(=O)NCCN(CC(C)C)CC(C)C)c(=O)c2cc3sc(C)cc3n12	?	-19%
Cc1ccc(NC(=O)CC2Oc3ccc(C)cc3NC2=O)c(C)c1 (stereo not drawn)	-13%	-19%
O=C(CSCc1ccc(F)cc1)N1CCN(c2ccccc2F)CC1	?	2%
COc1ccc(C(=O)N2c3ccc(C)cc3C(C)(c3ccccc3)CC2(C)C)cc1 (stereo not drawn)	?	?
COC(=O)c1ccc(C(=O)OC)c(NC(=O)N2CC3CCCN3c3ccccc32)c1 (stereo not drawn)	?	?
CC(=O)Nc1ccc(S(=O)(=O)NCC2CCC(C(=O)NCCc3ccccc3)CC2)cc1 (stereo not drawn)	-30%	-3%
COCCN1C(=O)c2oc3cc(C)cc(C)c3c(=O)c2C1c1cccc(O)c1 (stereo not drawn)	-3%	-21%
CC(=O)N1c2ccc(S(=O)(=O)N3CCN(c4cccc(Cl)c4)CC3)cc2CC1C (stereo not drawn)	-10%	8%
CCCCOc1cccc(C(=O)Nc2cc3nn(-c4ccc(F)cc4)nc3cc2C)c1	3%	11%
Cc1c2cnn(-c3ccccc3)c(=O)c2c(C)n1C(C)C(=O)Nc1ccccc1C(F)(F)F (stereo not drawn)	-26%	?
CCCn1cc(S(=O)(=O)c2ccc(OC)cc2)c(=O)c2cc(F)c(N3CCCCCC3)cc21	?	5%
CCOc1ccc(CN2CCc3nc(N4CCN(c5ccccn5)CC4)ncc3C2)cc1OC	?	?
CCOC(=O)N1CCN(CCC(=O)Nc2cccc(F)c2)CC1	-4%	-11%[11.5 µM]

Reformatted with each value named: part of the list above.
CC(C)C[C@@H](N)C(=O)O
  PMP22 txn prim: .
  HTT prom inh: -4%[25.2 µM]

CCOc1ccc(CN2CCc3nc(N4CCN(c5ccccn5)CC4)ncc3C2)cc1OC
  PMP22 txn prim: ?
  HTT prom inh: ?

6 entries out of the list, sorted by length of the SMILES, rising:
SMILES	PMP22 txn prim	HTT prom inh
O=C(CSCc1ccc(F)cc1)N1CCN(c2ccccc2F)CC1	?	2%
Cc1cc(Cl)ccc1NS(=O)(=O)c1ccc2c(c1)CCN2S(C)(=O)=O	-29%	-23%
CCCCOc1cccc(C(=O)Nc2cc3nn(-c4ccc(F)cc4)nc3cc2C)c1	3%	11%
COC(=O)c1ccc(C(=O)OC)c(NC(=O)N2CC3CCCN3c3ccccc32)c1 (stereo not drawn)	?	?
CCNC(=O)c1cc2c(-c3cc(OCCN4CCCC4)c(Cl)cc3Cl)nc(N)nc2s1	.	?
CCN(CC)C(=O)c1sc2c(c1C)c(=O)n(-c1ccc(OC)cc1OC)c(=O)n2CC(=O)c1ccc(Cl)cc1	-21%	-18%

Other records:
SMILES	PMP22 txn prim	HTT prom inh
O=C(NCc1ccccc1F)C1CCN(c2nnc(-n3cccc3)s2)CC1	-8%	-14%
COc1ccc(-c2nn(C)c3sc(C(=O)N4CCN(c5cccc(Cl)c5)CC4)cc23)cc1OC	?	?
CCC(Sc1nc2ncccc2o1)C(=O)Nc1ccc(OC)c(OC)c1 (stereo not drawn)	-1%	14%
Cc1ccc(C(=O)N(Cc2ccco2)Cc2ccco2)cc1	26%	0%
COc1ccc(N(CC(=O)N2CCN(c3ccccc3F)CC2)S(=O)(=O)c2c(C)noc2C)cc1	-2%	-9%
Cc1cc(C)c(NC(=O)CSc2nc(=O)n(Cc3ccco3)c3c2CCC3)c(C)c1	-10%	-2%
CC(C)N(C(=O)Cn1cc(SCC(=O)Nc2ccccc2C(F)(F)F)c2ccccc21)C(C)C	9%	-16%
COc1ccc(Nc2oc(/C=C/c3cc(OC)c(OC)c(OC)c3)nc2C#N)cc1	-6%	0%
Cc1ccc(NC(=O)c2sc3ncnc(N(C)C4CCCCC4)c3c2C)c(C)c1	-46%	-1%
CCc1cccc(NC(=O)CSc2nncn3c2cc2sccc23)c1	?	4%
O=C(Cc1ccc(NC(=O)N2CCSc3ncccc32)cc1)NCc1cccc(Cl)c1	3%	?
COc1ccc(CCNC(=O)CCn2c(=O)c3ccccc3n(CC(=O)Nc3cccc(C)c3)c2=O)cc1OC	-1%	-8%
COc1ccccc1CNC(=O)C1CCN(S(=O)(=O)c2ccc3c(c2)CCCN3C(C)=O)CC1	-13%	-19%
Cc1ccc(NC(=O)c2cnc3sc(N4CCOCC4)nn3c2=O)cc1N(C)C	-32%	?
COC(=O)c1sccc1S(=O)(=O)N(CC(=O)Nc1c(C)cccc1C)c1ccc(C)c(C)c1	?	-18%
Cc1ccc(NC(=O)CSc2nc3ccccc3nc2Cc2ccccc2F)cc1F	-1%	-4%
O=C(O)[C@H](Cc1c[nH]c2ccccc12)N1C(=O)c2ccccc2C1=O	.	-22%[116 µM]
CC1=C(C(=O)OCc2ccc(C)cc2)C(c2cccc(F)c2F)CC(=O)N1 (stereo not drawn)	1%	?
Cc1cn2c(=O)cc(COC(=O)c3cccc(NC(=O)COc4ccccc4C)c3)nc2s1	-26%	-18%
Cc1cc(NS(=O)(=O)c2ccc3oc(=O)c4ncn(C)c4c3c2)ccc1Br	5%	-11%
COc1cc(-c2nc(Cn3nnc(C(=O)Nc4cccc(Cl)c4)c3C)c(C)o2)cc(OC)c1OC	?	-1%
CSc1ccc(C2c3c(oc4ccc(F)cc4c3=O)C(=O)N2c2ccc(C)cn2)cc1 (stereo not drawn)	8%	1%
CC1CCN(C(=O)Cn2c(=O)n(CC3CCC(C(=O)NC(C)C)CC3)c(=O)c3sccc32)CC1 (stereo not drawn)	-43%	-4%

Source: PubChem BioAssay (National Center for Advancing Translational Sciences (NCATS))
